# Screening data from PubChem.
# Mtb growth: M. tuberculosis H37Rv growth inhibitors, H37Rv strain (AID 1626). inhibition, % at 10 µM, or IC50 in µM where a hit was titrated. 220,000 tested, 0.95% active. M. tuberculosis H37Rv growth inhibition; higher % means a stronger effect;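 active means confirmed in a dose series; inconclusive means inhibition above 80% but not taken into the dose series; inactive means below 80% or under 30% at every dose of the series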;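 further: bacteria incubated seven days before Alamar blue readout; 0% = bacteria only wells and 100% = bacteria with antibiotic wells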
# RecA intein inh: Mtb RecA intein splicing inhibitors, primary screen, biochemical, fluorescence, HTS. Protein RecA (Mycobacterium tuberculosis (strain ATCC 25618 / H37Rv)), P9WHJ3. cell-free RecA intein splicing. inhibition, %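 (about 9 µM by stock and volumes)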. 290,000 tested, 0.75% active; in the data active means inhibition above about 30%; inconclusive means no clear call, values can overlap the other calls;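 further: 0% = vehicle wells and 100% = reference inhibitor control wells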
# Target sequence (P9WHJ3 whole entry, looked up): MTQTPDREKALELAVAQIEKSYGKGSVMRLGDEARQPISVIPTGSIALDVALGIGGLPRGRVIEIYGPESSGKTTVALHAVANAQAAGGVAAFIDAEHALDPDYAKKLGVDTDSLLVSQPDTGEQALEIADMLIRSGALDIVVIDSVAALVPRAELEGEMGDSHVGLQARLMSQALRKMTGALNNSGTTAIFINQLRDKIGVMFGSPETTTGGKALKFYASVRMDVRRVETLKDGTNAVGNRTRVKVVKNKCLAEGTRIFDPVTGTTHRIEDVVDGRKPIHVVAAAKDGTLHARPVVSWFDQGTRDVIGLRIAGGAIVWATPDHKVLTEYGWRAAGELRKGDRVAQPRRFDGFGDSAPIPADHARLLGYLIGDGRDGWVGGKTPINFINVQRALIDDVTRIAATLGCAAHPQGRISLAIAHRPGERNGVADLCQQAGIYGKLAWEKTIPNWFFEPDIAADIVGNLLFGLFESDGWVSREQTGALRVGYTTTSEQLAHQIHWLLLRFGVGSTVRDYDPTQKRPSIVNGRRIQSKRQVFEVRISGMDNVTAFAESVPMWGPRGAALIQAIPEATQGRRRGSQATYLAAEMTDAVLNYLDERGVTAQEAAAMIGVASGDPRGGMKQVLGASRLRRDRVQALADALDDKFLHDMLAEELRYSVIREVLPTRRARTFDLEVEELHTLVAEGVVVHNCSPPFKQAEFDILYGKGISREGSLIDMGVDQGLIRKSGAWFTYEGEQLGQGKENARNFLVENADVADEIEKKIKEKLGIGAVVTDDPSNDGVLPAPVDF
# YopH PTP inh: YopH tyrosine phosphatase inhibitors, primary screen, biochemical, fluorescence Ex485/Em525 | YopH tyrosine phosphatase [Yersinia enterocolitica] | inhibition, %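 (about 10 µM by stock and volumes)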 | 140,000 tested, 0.16% active | AID 898, 2007;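 active means inhibition of 50% or more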;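 further: controls were vehicle for no effect and minimum signal wells for full effect; inactives centre near -20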
# Mtb betalactam: beta-lactam sensitization of Mtb H37Rv, H37Rv. M. tuberculosis H37Rv growth with meropenem, percent inhibition; hits of this screen are not shown here. inhibition, % at 25 µM. 330,000 tested, 0.27% active. AID 434955, 2010;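 active means about 74% or more and at least 40 points above the plate without the antibiotic, then above 30% in a dose series; inconclusive means first-round hits that could not be retested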;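 further: growth measured after seven days incubation then overnight dye step; 0% = bacteria only wells and 100% = bacteria with antibiotic; twin plates without the antibiotic show which effects depend on it; some results filed as inactive read as strong as hits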
# Arbovirus inh: antivirals against arbovirus infection, primary screen, cell-based, full library, 10K replicate subset. arbovirus infection cell-based antiviral screen. inhibition, % at 10 µM. 200,000 tested, 0.37% active;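 active means inhibition from about 30%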;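 further: bluetongue infection of BSR cells; cell survival read as ATP light after 72 h; 0% = infected wells without compound and 100% = uninfected wells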
# Arbovirus inh repeat: further read-out of Arbovirus inh, marked with its call; inhibition, %; measured here: 10K subset replicate screen; many hits read low in the repeat;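 first of two repeat runs on a subset; 0% = infected and 100% = uninfected wells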
# Starred values were filed as active, the others as inactive; i = inactive; ? = inconclusive; . = not tested or not shown.
SMILES,Mtb growth,RecA intein inh,YopH PTP inh,Mtb betalactam,Arbovirus inh,others
COCCCNC(=S)N/N=C/c1ccc(O)cc1O,.,-6.8,.,-10,.,
COc1ccccc1C(c1nnnn1Cc1ccccc1)N1CCN(c2nc3ccccc3s2)CC1 (stereo not given),10%,8.5,-33,2,20,
N#Cc1ccccc1Sc1ccccc1C(=O)Nc1ccc2ccccc2c1,1%,.,-27,3,13,
CCCn1nc(NC(=O)COC)c2cc3cccc(C)c3nc21,.,-87,.,4,.,
CCCNC(=O)Cn1c(=O)/c(=C\c2ccc(-c3ccc([N+](=O)[O-])cc3)o2)s/c1=C\C(=O)C(C)(C)C,5%,-5.4,-17,7,-6,
CCSc1nnc(NC(=O)COc2ccccc2[N+](=O)[O-])s1,7%,-0.8,.,-9,2,
CN1C(=O)C(CC(=O)Nc2ccc(F)cc2)N(Cc2cccs2)C1=S (stereo not given),-8%,-0.9,.,-9,.,
Cc1ccc(OCCCCNC(C)(C)C)c([N+](=O)[O-])c1,4%,-0.5,-23,-3,-8,
CC(=O)N1CCc2cc(S(=O)(=O)NCCCN3CCCCC3)ccc21,.,-3.8,.,-5,.,
CC(C)(C)Nc1nc(Oc2ccc(=O)[nH]n2)nc(N2CCOCC2)n1,-5%,-3.0,.,-2,0,
CC(O)c1cccc(NC2=CC(=O)CC(C)(C)C2)c1 (stereo not given),-2%,0.4,34,-3,7,
COc1cc(Cl)nn(-c2ccccc2)c1=O,1%,-4.1,-21,-9,2,
CN1CCN(S(=O)(=O)c2ccc(NC(=O)c3ccc(F)cc3Cl)cc2)CC1,.,1.6,.,4,.,
CC(C)Nc1nc(-c2cccnc2)nc(-c2ccc(Cl)cc2)c1C#N,.,0.5,.,2,.,
C=Cn1nc(C)c2ccccc2c1=O,-1%,0.9,7,-8,-7,
CC1(C)CC(NC(=O)COc2ccc3ccccc3c2)CC(C)(C)N1,-11%,2.4,-11,1,8,
COc1ccc2c(c1)c(C(=O)O)c(C)n2C(C)C,-1%,1.3,-10,-4,4,
O=C(COc1ccc(F)cc1)N1CCC(c2ccccc2)C1 (stereo not given),-7%,2.5,-29,-6,5,
COc1ccc(CNc2cccc3[nH]c(C(F)(F)F)nc23)cc1,.,3.4,.,5,.,
COC(=O)CCC(=O)c1ccn(S(=O)(=O)c2ccccc2)c1,.,-0.3,.,-12,.,
CSc1ccccc1NC(=O)c1cc2c(=O)n3ccccc3nc2s1,.,-2.2,.,6,.,
COc1cc2nc(COc3ccccc3[N+](=O)[O-])oc(=O)c2cc1OC,-2%,0.5,-13,5,-2,
Cc1ccc(OCC(=O)n2cnnc2N)c(C)c1,-2%,3.5,-2,?,10,
O=C(CSc1ncn[nH]1)c1ccc2c(c1)OCCO2,-3%,3.5,-18,4,26,
COc1ccc(CN2C(=O)c3cccnc3C2=O)cc1S(=O)(=O)NC(C)C,.,-0.4,.,2,.,
CC(=O)Nc1ccc(NC(=O)CN2CCCC(C)C2)c(Cl)c1 (stereo not given),-1%,-1.0,-25,-1,2,
Cc1ccc(S(=O)(=O)Nc2ccc(NC(=O)Nc3cccc(C(F)(F)F)c3)cc2)cc1,?,-7.6,-14,28,-41,
Cc1ccc(C23CC4CC(CC(C(=O)NC(C(=O)O)C(C)C)(C4)C2)C3)cc1 (stereo not given),.,1.1,.,-3,.,
CCn1c(=O)c(CCC(=O)N2CCN(c3ccccn3)CC2)c(C)c2c(C)nn(-c3ccccc3)c21,.,0.2,.,3,.,
O=C(O)CSc1nc2c(cnn2-c2ccccc2)c(=O)n1-c1ccc(Br)cc1,-4%,-1.5,-14,-2,11,
CC1=CC2=NC(=O)/C(=C/c3coc4ccc(Cl)cc4c3=O)C(=N)N2O1,8%,-14,.,-1,.,
O=[N+]([O-])c1ccc2[nH]nc(-c3ccccc3)c2c1,-6%,1.4,-16,0,15,
CC(O)c1nc2ccc(C(=O)O)cc2[nH]1 (stereo not given),31%,2.7,.,2,.,
Cc1nc(NC2CCCCC2)c2nnn(Cc3ccccc3Cl)c2n1,.,0.5,.,6,.,
Nc1nonc1-n1nnc(C(=O)N/N=C/c2ccccc2Br)c1CN1CCCC1,.,-2.8,.,-3,.,
CCCc1nc2ccccc2c(C(=O)OCc2nnc(-c3cc(OC)c(OC)c(OC)c3)o2)c1CC,.,.,-12,0,-6,
O=C(O)C(Cc1ccccc1)n1cnnn1 (stereo not given),.,-1.7,-14,-6,5,
CCOc1ccc(OCC)c(NC(=O)Cn2c(C)nc3ccccc3c2=O)c1,18%,1.8,.,-1,1,
CSc1ccccc1OCc1cc(C(=O)NCCn2nc(C)cc2C)no1,.,1.7,.,?,.,
O=C(CCS(=O)(=O)c1ccccc1)Nc1nccs1,3%,-0.2,-42,-6,0,Arbovirus inh repeat=1

# Among those listed so far, these contain bromine.
SMILES,Mtb growth,RecA intein inh,YopH PTP inh,Mtb betalactam,Arbovirus inh,others
O=C(O)CSc1nc2c(cnn2-c2ccccc2)c(=O)n1-c1ccc(Br)cc1,-4%,-1.5,-14,-2,11,
Nc1nonc1-n1nnc(C(=O)N/N=C/c2ccccc2Br)c1CN1CCCC1,.,-2.8,.,-3,.,

# New compounds follow
SMILES,Mtb growth,RecA intein inh,YopH PTP inh,Mtb betalactam,Arbovirus inh,others
COc1ccc(C2CC(c3c(O)n(CCc4ccccc4)c(=O)[nH]c3=O)=NN2)cc1OC (stereo not given),-8%,1.6,.,4,.,
NCCCC[C@@H]1NC(=O)c2cc([N+](=O)[O-])cc(F)c2NCCCC[C@@H](C(N)=O)NC(=O)CNC1=O,-14%,-0.1,-26,-16,1,
CC(C)(C)C(=O)Nc1ccc(S(=O)(=O)Nc2ccccn2)cc1,6%,-0.2,.,-2,-3,
CCS(=O)(=O)N1Cc2ccccc2CC1C(=O)Nc1cccc(C)c1 (stereo not given),4%,0.9,.,-2,-3,
CCNc1nc(N2CCOCC2)nc(N(c2ccccc2)c2ccccc2)n1,-9%,1.3,-25,1,-1,
O=C(Nc1ccccc1)c1ccccc1OCC(O)CN1C(=O)c2ccccc2S1(=O)=O (stereo not given),-2%,2.2,-47,-6,7,
CC(C)(C)NC(=O)NC(=O)COC(=O)C1=COCCO1,17%,.,-10,44,4,
CC(=O)Nc1c(C(=O)N2CCCCCC2)cnn1-c1ccccc1Cl,-3%,0.7,-25,3,-1,
Cc1ccccc1C(=O)NC(=S)Nc1ccc(Cc2ccncc2)cc1,1%,-0.5,-22,2,1,
COc1ccc(-c2ccc(OC)cc2C(=O)O)cc1,1%,0.9,-47,0,3,
Cn1ncc(N=Cc2ccccc2O)c1C(=O)N1CCOCC1,.,-1.7,-24,4,-2,
CCCNC(=O)Cn1c(=O)cnc2ccccc21,-1%,-1.3,-35,0,-1,
CCC(C)NC(=O)Cn1c(=O)n(-c2ccc(OC)cc2)c(=O)c2ccc(C(=O)NCc3ccc(C)cc3)cc21 (stereo not given),-4%,1.1,.,-1,0,
Cc1cccc(C)c1NC(=O)CN(C)C(=O)CC1OC(=O)c2ccccc21 (stereo not given),.,0.2,.,-3,.,
O=C(O)c1ccc(-c2ccc(-c3ccccc3)cc2)s1,.,2.5,.,2,.,
c1cncc(CSc2nnc3ccc(-c4ccncc4)nn23)c1,-1%,0.6,.,0,0,
COc1ccc(CCNC(=O)CCc2ccc(S(=O)(=O)NC(C)C)cc2)cc1OC,0%,-0.4,-27,4,5,
CC1(C)Cn2c(nnc2-c2cccc(O)c2)S1,-12%,4.0,-41,-13,3,
CCS(=O)(=O)N1CCN(S(=O)(=O)c2ccc(F)cc2)CC1,4%,0.4,-87,-1,3,
Cc1ccc(NC(=O)N2CCCC2)cc1Cl,5%,2.0,.,-3,1,

# Filtered by structure, those above with a CF3 group.
SMILES,Mtb growth,RecA intein inh,YopH PTP inh,Mtb betalactam,Arbovirus inh,others
COc1ccc(CNc2cccc3[nH]c(C(F)(F)F)nc23)cc1,.,3.4,.,5,.,
Cc1ccc(S(=O)(=O)Nc2ccc(NC(=O)Nc3cccc(C(F)(F)F)c3)cc2)cc1,?,-7.6,-14,28,-41,

# Next structures:
SMILES,Mtb growth,RecA intein inh,YopH PTP inh,Mtb betalactam,Arbovirus inh,others
C#CCn1c(=O)cc(C)c2ccccc21,-5%,-2.2,.,-2,0,
O=C(O)c1nn(CC(=O)N2CCC(Cc3ccccc3)CC2)c(=O)c2ccccc12,.,0.9,.,0,.,
CCOC(=O)C1CCCN(Cc2ccccc2Cl)C1 (stereo not given),-15%,-4.4,-2,-2,88*,
CC(=O)c1ccc(OC(=O)CCc2nc3ccccc3s2)cc1,5%,14,.,-3,4,
Cc1ccc(S(=O)(=O)N2CCOCC2)cc1C(=O)NCc1ccc(F)cc1,-12%,1.0,-22,-5,7,
Cc1ccc2nc3c(cc(C(=O)NCCc4ccccc4)c(=N)n3CC3CCCO3)c(=O)n2c1 (stereo not given),.,i,.,-5,.,
COCCCNC(=O)Cn1nnc(-c2ccc(NC(=O)c3ccccc3OC)cc2)n1,6%,-0.5,-33,6,-7,
O=C1Nc2ccccc2SC(c2ccccc2)C1O (stereo not given),-3%,1.5,-17,-9,5,
Fc1ccccc1NC(=S)N(CCN1CCCCCC1)Cc1cccs1,7%,3.4,.,1,10,
CC1CC(C)CN(S(=O)(=O)c2ccc(C(=O)NN3CCOCC3)cc2)C1 (stereo not given),0%,-0.7,.,-8,-3,
CCOC(=O)N1CCN(C(=O)c2cccc(NS(=O)(=O)c3ccc(F)c(F)c3)c2)CC1,-3%,0.8,-18,3,9,
Clc1cccc(-c2cc3nc4c(c(NCc5ccco5)n3n2)CCCC4)c1,80%,.,-41,10,34*,
O=C1CSC(c2cccnc2)N1Cc1ccc(Cl)cc1Cl (stereo not given),-12%,8.9,.,-4,.,
CCOC(=O)c1c(C)c(C)n(Cc2cccc(OC)c2OC)c1C,3%,10,-20,2,3,
COc1ccc(Cl)cc1C(=O)Nc1ccc(S(=O)(=O)N2CCCC2)cc1,.,-2.0,0,-2,-2,
COc1ccc(C)cc1NC(=O)NNC(=O)C(C)Oc1ccc([N+](=O)[O-])cc1 (stereo not given),.,0.3,.,72,.,
O=C(NCc1ccccc1)C(=O)NCC1CCCN1S(=O)(=O)c1cccs1 (stereo not given),.,1.8,.,-3,.,
O=C(CSc1ncccn1)c1ccccc1Br,-1%,-2.2,-2,57,2,
CCOC(=O)c1ccc(NC(=O)CCc2ccc(C)o2)cc1,?,2.1,-32,99,8,
C[C@@]12C(=O)N(CC3CC3)CC(=O)N1[C@H](/C=C/c1ccccc1)[C@@H]1C(=O)N(c3ccccc3)C(=O)[C@@H]12,.,3.2,.,-12,.,

# The closing 2 entries of the section before are carried over, then new ones follow.
SMILES,Mtb growth,RecA intein inh,YopH PTP inh,Mtb betalactam,Arbovirus inh,others
CCOC(=O)c1ccc(NC(=O)CCc2ccc(C)o2)cc1,?,2.1,-32,99,8,
C[C@@]12C(=O)N(CC3CC3)CC(=O)N1[C@H](/C=C/c1ccccc1)[C@@H]1C(=O)N(c3ccccc3)C(=O)[C@@H]12,.,3.2,.,-12,.,
COC(=O)C1CSC(C(=O)OC)N1C(=O)CN1CCN(c2ccc(OC)cc2)CC1 (stereo not given),1%,-1.1,.,0,7,
CCn1c(/C=N/n2cnnc2)nc2ccccc21,-4%,0.9,-41,7,4,Arbovirus inh repeat=2
c1ccc(-c2cncn2-c2ccccc2)cc1,.,0.4,.,66,.,
C=CCOc1ccc(/C=C/C(=O)OC(C)C(=O)Nc2ccc(NC(C)=O)cc2)cc1 (stereo not given),.,1.2,.,-2,.,
CCCC(C)C(=O)Nc1ccc(Cl)cc1Cl (stereo not given),-6%,18,-2,-7,5,
Cn1c(SCC(=O)c2ccc(F)cc2)nc2cccnc21,3%,-0.2,-3,-6,3,
Cc1ccc2cc(C(c3nnnn3C3CCCC3)N(Cc3cccnc3)Cc3ccco3)c(=O)[nH]c2c1 (stereo not given),-3%,11,-36,9,-14,
CCOC(=O)C1=C(C)NC(=O)CC1c1cc2c(cc1Br)OCO2 (stereo not given),-2%,0.1,-44,-11,-7,Arbovirus inh repeat=-2
Cc1cc(C)cc(N2CC(C(=O)OCC(=O)Nc3cc(C)on3)CC2=O)c1 (stereo not given),.,0.7,.,-3,.,
O=C(Nc1ccc(F)c([N+](=O)[O-])c1)c1ccc2c(c1)OCCO2,8%,-0.5,.,-2,8,
Cc1ccc(Cl)cc1NC(=O)c1cc(NC(=O)CCCC(=O)O)ccc1N1CCCCC1,.,3.2,.,1,.,
COC(=O)c1ccc(Cn2cc(Cl)cn2)cc1,-6%,-1.0,-35,0,-6,
Cc1ccc(S(=O)(=O)c2nc(-c3ccccc3Cl)oc2N(C)C)cc1,.,2.0,.,0,.,
COc1cc(C)nc(N2CCCC(C(=O)Nc3ccccc3Br)C2)n1 (stereo not given),-6%,.,.,4,-3,

# A portion of the library; rates above refer to the full screens.
